From PubChem BioAssay
D2 ag: agonists of human D2 dopamine receptor (beta-arrestin) | P14416 | DiscoveRx PathHunter D2 beta-arrestin, luminescence, 90 min; 100% = 57 uM dopamine signal | activation, % (concentration not given with the values) | 360,000 compounds, 0.084% hits | AID 624465; in the data active = activation above about 40%; inconclusive = about 15% to 40%; inactive = below about 15%; note: the text of the record calls up to 30% inactive
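DiscoveRx PathHunter D2 beta-arrestin cells (2,100/well) attached overnight, then compound-stimulated 90 min at 37 C in HBSS/10 mM HEPES/0.1% Tween-20 buffer; beta-galactosidase complementation read by luminescence after 1 h at ambient temperature. Dopamine 57 uM final (EC100) as control.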
D2 potentiator: potentiates the human D2 dopamine receptor allosterically; DiscoveRx D2 beta-arrestin cells, luminescence, 90 min; 100% = 57 uM dopamine signal; potentiation, % (concentration not given with the values); 360,000 compounds, 0.23% hits; AID 624464; active = potentiation of 50% or more; inconclusive = 30% to 50%; inactive = 30% or less;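 note: tested on top of an EC20 dose of dopamine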
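D2 cells co-treated with compound plus 50 nM dopamine (EC20) for 90 min at 37 deg C to detect potentiation. Beta-arrestin recruitment was read as enzyme-fragment luminescence after 1 h at ambient temperature. Full response was set by 57 uM dopamine.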
Six1-Eya2 blk: Six1/Eya2 interaction inhibition; Q15475+O00167; AlphaScreen GST-Six1/His-Eya2 binding, biochemical; active compounds read low; control for the full effect not named in the record; activity change, % (test concentration not listed); 360,000 compounds, 0.56% hits; in the data active = activity change below about -65%; inconclusive = about -30% to -65%; inactive = above about -30%; note: % is set by controls: 0 for no effect and ±100 for the full control effect
Target sequence (O00167 whole entry, looked up): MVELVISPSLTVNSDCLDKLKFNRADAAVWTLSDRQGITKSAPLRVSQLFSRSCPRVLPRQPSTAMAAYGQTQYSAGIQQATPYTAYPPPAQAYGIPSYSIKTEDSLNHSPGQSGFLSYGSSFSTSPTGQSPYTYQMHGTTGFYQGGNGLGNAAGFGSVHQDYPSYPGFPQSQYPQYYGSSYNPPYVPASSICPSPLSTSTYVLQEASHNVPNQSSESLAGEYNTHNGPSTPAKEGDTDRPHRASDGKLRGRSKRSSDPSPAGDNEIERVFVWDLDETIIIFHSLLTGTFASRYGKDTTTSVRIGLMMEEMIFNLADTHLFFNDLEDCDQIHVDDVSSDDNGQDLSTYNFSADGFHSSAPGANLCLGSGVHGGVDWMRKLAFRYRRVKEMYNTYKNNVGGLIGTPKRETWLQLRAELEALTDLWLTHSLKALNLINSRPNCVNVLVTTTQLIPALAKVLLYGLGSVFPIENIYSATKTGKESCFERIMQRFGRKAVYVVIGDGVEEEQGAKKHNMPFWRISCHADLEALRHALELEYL
Target sequence (Q15475 whole entry, looked up): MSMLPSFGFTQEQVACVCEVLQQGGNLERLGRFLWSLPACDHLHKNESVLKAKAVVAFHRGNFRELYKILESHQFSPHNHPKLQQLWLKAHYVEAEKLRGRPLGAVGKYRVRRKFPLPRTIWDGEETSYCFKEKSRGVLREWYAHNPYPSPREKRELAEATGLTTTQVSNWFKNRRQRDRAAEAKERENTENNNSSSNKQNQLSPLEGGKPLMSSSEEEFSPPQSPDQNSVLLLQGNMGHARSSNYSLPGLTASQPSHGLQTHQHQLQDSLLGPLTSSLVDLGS
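Homogeneous AlphaScreen proximity assay pairing GST-Six1 with His-tagged Eya2 (added as 5X mix: 250 nM and 500 nM) in 50 mM Tris pH 8.0, 300 mM NaCl, 1 mM TCEP. Glutathione donor and nickel acceptor beads; 1 h, 37 °C, dark.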
PINK1 modulator: PINK1 expression modulation. PINK1 immunofluorescence, high-content cytometry, 24 h. Potency, µM (doses to about 76.6 µM), inactives show top-dose activation (PINK1 increase), most hits filed as activators. 410,000 compounds, 0.2% hits. AID 624263; active = well fitted activation curve with a large enough effect; inconclusive = small, poorly fitted or top-dose-only effect; inactive = flat fitted curve, though single readings scatter; cell line not stated here;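 note: potency is the fitted concentration of half-maximal effect; % of control where 0% means no effect; nearly all actives have a fitted effect of over 65% in size; a mitochondrial uncoupler was the plate control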
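Fluorescence from anti-PINK1 antibody, together with nuclear and cell stains, was scanned on a laser-scanning cytometer. Before staining, stable-line cells were incubated 24 hours with compounds at 5 concentrations; primary antibody 12 h at 10 degrees C.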
CtBP-E1A blk: CtBP/E1A binding inhibition | AlphaScreen GST-E1A/His-CtBP binding, 1536-well; active compounds read low; control for the full effect not named in the record | activity change, % (test concentration not listed) | 340,000 compounds, 0.49% hits | AID 651724; in the data active means activity change below about -65%; inconclusive means about -30% to -65%; inactive means above about -30%; note: % is set by controls: 0 for no effect and ±100 for the full control effect
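Steps: dispense buffer (Tris pH 8.0, NaCl 300 mM, TCEP 1 mM, BSA, Tween 20); add 5X protein mix (GST-E1A, His-CtBP, 125 nM each); pin 23 nL compound; 2 h at 37 °C, dark; add 5X beads (50 ug/mL); 1 h; read.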
TRPML1 ag: human mucolipin-1 channel agonism. Q9GZU1. TRPML1-expressing cells, Ca2+ dye fluorescence, FDSS; host cell line not named in the record; reference of the full effect not given here. activation, % (no concentration beside the values). 410,000 compounds, 0.12% hits; in the data active = activation above about 50%; inconclusive = about 30% to 50%; inactive = below about 30%; note: 0% is about no effect; the text of the record puts the active cut at 80%
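Agonist activity was taken from a 110 s kinetic Ca2+ dye read on the FDSS after pinning compounds onto TRPML1-DL cells. The cells were seeded at 1,500/well with Tet inducer, incubated about 16 h, then dye-loaded at room temperature.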
An asterisk follows results filed as active; u = inconclusive; x = no result given; & = joins results of further samples; [ ] = remark or other dose.

Start of the listing, in advance:
SMILES	D2 ag	D2 potentiator	Six1-Eya2 blk	PINK1 modulator	CtBP-E1A blk	TRPML1 ag
O=C(NCCN1CCOCC1)c1ccccc1Oc1ccccc1	-2.3	-3.7	2.7	0.1%	-3.8	-0.7
CCc1ccc(NC(=O)CCNC(=O)Cn2ccc3ccccc3c2=O)cc1	4.7	-2.0	5.1	7.2%	3.1	-0.4

The whole of this part, previewed entries included:
SMILES	D2 ag	D2 potentiator	Six1-Eya2 blk	PINK1 modulator	CtBP-E1A blk	TRPML1 ag
O=C(NCCN1CCOCC1)c1ccccc1Oc1ccccc1	-2.3	-3.7	2.7	0.1%	-3.8	-0.7
CCc1ccc(NC(=O)CCNC(=O)Cn2ccc3ccccc3c2=O)cc1	4.7	-2.0	5.1	7.2%	3.1	-0.4
O=C(CN1C(=O)NC2(CCc3ccccc32)C1=O)NCCc1ccccc1 (configuration not stated)	4.8	-17.0	-2.2	-1.1%	4.6	0.1
CCCN(CC(=O)Nc1ccccc1C)C(=O)/C=C/c1cccs1	-2.9	-15.9	1.5	-0.6%	4.2	0.9
O=C(Nc1ccc(NC(=O)c2ccccc2F)cc1)c1ccccc1F	-2.6	-3.8	-1.6	2.6%	5.7	0.5
N#C/C(=C\c1cccc(O)c1)C(=O)Nc1ccc2c(c1)OCCO2	-9.6	-2.4	-2.9	9.9%	-2.9	x
CN(C)c1cccc(C(=O)NCC2CCCO2)c1 (configuration not stated)	-1.1	15.6	-1.9	1.2%	-1.4	-1.4
CN1CCN(S(=O)(=O)c2ccc(NC(=O)C(C)(C)C)cc2)CC1	-3.0	2.0	1.2	5.3%[38.3 µM]	6.9	2.6
O=C(NCc1ccncc1)NC12CC3CC(CC(C3)C1)C2	3.2	-1.5	6.2	0.1%	6.7	-0.6
CCc1nnc(NC(=O)c2ccc(OCc3c(C)noc3C)c(OC)c2)s1	-0.5	-0.8	2.4	4.1%	x	2.8
COc1ccc2nc3cccc(OC)c3nc2c1	-2.1	3.9	-9.9	3.0%	-0.2	-0.2
Cc1ccc(-c2noc(CNC(=O)COc3ccccc3C)n2)cc1	-0.6	10.8	-7.9	0.1%	-2.5	3.6
CCOc1cc(/C=N/Nc2cccc(C(=O)O)c2)ccc1OCC(=O)N1CCCCC1	-0.9	-1.5	4.2	0.5%	3.9	-0.5
COc1cc(/C=C(\NC(=O)c2ccccc2)C(=O)NCCO)c([N+](=O)[O-])cc1OC	0.6	-7.9	4.3	4.8%	3.1	0.3
CCOC(=O)N1CCN(C(=O)/C(=C/c2cccc3ccccc23)NC(=O)c2ccc(OC)c(OC)c2)CC1	-4.1	15.3	0.2	0.8%	-3.7	-0.5
COc1ccc2c(CN3CCN(S(=O)(=O)c4cccs4)CC3)cc(=O)oc2c1	-0.3	5.7	0.6	-2.0%	4.1	-1.0
CC(=O)Nc1ccc(C=NNc2ccc(S(=O)(=O)Nc3ccccc3C(=O)O)cc2[N+](=O)[O-])cc1	3.2	-3.6	-21.6	1.4%	u	1.0
O=C1c2ccccc2C(=O)N1CCCn1ccnc1	-1.9	-1.5	-13.6	0.7%	-8.4	0.5
COc1ccc(OC)c(-c2c[n+](=O)c3c(n2[O-])CCCC3)c1	-0.3	-9.9	-0.6	-2.5%	-4.9	1.8
CC(CCC(=O)Nc1nncs1)C(=O)O (configuration not stated)	-2.3	0.7	6.6	1.2%	4.9	-0.3
COC1C(CO)OC(n2c3c(Cl)cccc3c3c4c(c5c6cccc(Cl)c6[nH]c5c32)C(=O)NC4=O)C(O)C1O (configuration not stated)	-4.0	-5.5	-1.7	39.8µM*	2.0	8.7
C=CCNC(=S)NCC	0.2	-3.7	5.9	0.2%	x	3.4
O=C(NC(=S)NCc1ccc(Cl)cc1Cl)c1ccco1	1.3	-9.7	-2.9	4.0%	4.4	0.1
COc1ccccc1NC(=O)CN(c1ccccc1F)S(C)(=O)=O	-2.2	-9.9	2.4	0.6%	1.0	-0.2
CN(c1ccc(C(=O)NC2CC3CCC2C3)cc1)S(C)(=O)=O (configuration not stated)	-2.9	-12.6	1.9	-1.2%	-13.8	0.3

Following part
SMILES	D2 ag	D2 potentiator	Six1-Eya2 blk	PINK1 modulator	CtBP-E1A blk	TRPML1 ag
CC(C)[C@H](N)c1nnc(SCC(=O)c2ccc(Cl)cc2)o1	0.0	-7.6	-0.3	3.6%[38.3 µM]	-3.3	-0.3
c1ccc(C2[C@H]3CN(CC4CCCCC4)[C@H](c4ccccc4)C34CC2(c2ccccc2)C4)cc1 (some centres not stated)	-2.7	-13.1	-0.5	6.6%	-0.6	-0.5
CCC(C)(C)NC(=O)CCn1c(-c2ccccc2)cc(C(C)=O)c1C	0.3	-10.7	-0.6	0.4%	x	1.0
NS(=O)(=O)c1ccc2c(c1)oc(=O)c1cc(S(N)(=O)=O)ccc12	7.1	-1.9	0.4	-2.6%	3.3	1.5
CN(C)/C=C/C(=O)c1cccc(Oc2ncccn2)c1	7.5	-2.3	5.4	2.7%	1.9	0.6
CCOC(=O)[C@]12CCC=C1N(Cc1ccc(Cl)cc1Cl)C(=O)[C@H](CC(=O)NCC13CC4CC(CC(C4)C1)C3)C2	x	x	-7.7	0.0%	0.7	0.0
CCOc1cc(C2C(C(=O)c3ccco3)=C(O)C(=O)N2Cc2ccccc2)ccc1O (configuration not stated)	-0.8	-0.6	-7.4	1.1%	-3.2	-0.6
Cc1ccc(OCc2nnc(SCC(=O)N3CCc4ccccc43)n2C)cc1	-0.5	2.5	0.2	-0.9%	-1.4	0.2
CCn1cc(C(=O)N2CCN(c3ccccn3)CC2)c(=O)c2cc(S(=O)(=O)N3CCC(C)CC3)ccc21	0.6	0.7	5.4	-0.8%	-0.7	0.2
Cc1ccc(C(=O)c2c[nH]c3c(F)cc(F)cc3c2=O)cc1	0.2	-19.1	7.2	0.2%	0.0	0.2
Cc1cc([N+](=O)[O-])nn1CC(=O)Nc1ccc(Cc2ccncc2)cc1	-1.4	-10.7	5.9	1.6%	x	0.2
Cc1cccc(OCC(=O)NCCNC(=O)c2ccncc2)c1	-2.5	-7.9	-0.5	1.4%	3.1	0.4
CC(C)=CCC/C(C)=C/CNC(=O)C[C@H]1C[C@H](C(=O)N(C(C)C)C(C)C)[C@@]2(C)c3[nH]c4cc(CCC(=O)N(C)C)ccc4c3CCN2C1=O	-1.6	x	-13.4	1.8%	-9.7	-0.5
Cc1ccc(N(C(=O)c2csnn2)C(C(=O)NC2CCCCC2)c2ccncc2)c(C)c1 (configuration not stated)	-0.6	-4.8	0.0	1.2%	19.1	-0.3
N#Cc1ccccc1NC(=O)CN1C(=O)NC2(CCCC2)C1=O	-0.4	-1.2	-3.9	-1.6%	-0.1	-0.5
C=C1CCN([C@H](C(=O)NCc2ccco2)C(C)C)S(=O)(=O)c2ccccc21	2.0	-1.0	11.0	-0.4%	5.3	-0.2
COc1ccc(C(=O)COC(=O)CN2CC(=O)Oc3ccccc32)cc1Br	2.8	10.0	-93.0*	0.0%	-92.8*	1.9
Cc1ccc(OCc2ccc(C(=O)O)o2)cc1C	-0.9	-6.5	0.0	-3.1%	0.0	1.6
O=C(N/N=C/c1ccc(N2CCOCC2)o1)c1ccccc1[N+](=O)[O-]	-1.3	1.6	0.1	-0.3%	-2.1	-0.4
CCOC(=O)C1C(c2ccccc2)N(C)OC1(O)C(F)(F)F (configuration not stated)	4.3	-1.1	11.1	3.0%	5.6	-0.5
CC1CCN(S(=O)(=O)c2ccc3c(c2)N(CC(=O)NCCCN2CCCCC2C)C(=O)CS3)CC1 (configuration not stated)	0.8	-13.7	-0.5	-2.1%&1.1%	1.7	-0.2&-0.7
CN(C(=O)c1ccccc1)c1nc2ccccc2s1	-2.6	-1.7	-0.6	2.3%	15.8	0.2
CCCCC[C@@H](C)N1C[C@H](COCc2ccccc2)Oc2cc(N3CC[C@@H](O)C3)ccc2S1(=O)=O	x	x	-14.6	16.8%	-11.0	-0.4
CCOC(=O)c1nc(C)sc1-c1ccnn1S(=O)(=O)c1ccccc1C(F)(F)F	-2.2	-1.3	-2.6	3.0%	-3.2	3.3
Cc1nn(Cc2noc(C(=O)NCc3ccccn3)n2)c(C)c1Br	-0.7	-0.4	-0.4	-0.2%	0.4	-0.8

An excerpt from above in order of their number in Six1-Eya2 blk, lowest first:
SMILES,Six1-Eya2 blk
COc1ccc(C(=O)COC(=O)CN2CC(=O)Oc3ccccc32)cc1Br,-93.0*
CCOc1cc(C2C(C(=O)c3ccco3)=C(O)C(=O)N2Cc2ccccc2)ccc1O (configuration not stated),-7.4
CCOC(=O)c1nc(C)sc1-c1ccnn1S(=O)(=O)c1ccccc1C(F)(F)F,-2.6
CN(C(=O)c1ccccc1)c1nc2ccccc2s1,-0.6
CC1CCN(S(=O)(=O)c2ccc3c(c2)N(CC(=O)NCCCN2CCCCC2C)C(=O)CS3)CC1 (configuration not stated),-0.5
Cc1ccc(OCc2nnc(SCC(=O)N3CCc4ccccc43)n2C)cc1,0.2
CCn1cc(C(=O)N2CCN(c3ccccn3)CC2)c(=O)c2cc(S(=O)(=O)N3CCC(C)CC3)ccc21,5.4

Next records
SMILES	D2 ag	D2 potentiator	Six1-Eya2 blk	PINK1 modulator	CtBP-E1A blk	TRPML1 ag
CC(O)c1cccc(NC(=O)C2CCCCC2)c1 (configuration not stated)	-1.9	-2.6	-0.1	0.8%	x	0.6
CC(C)=CCC[C@H](C)C[C@@H]1CC2=C(C(=O)OC(C)(C)O2)[C@H](c2ccc(Cl)cc2)O1	1.6	2.7	4.1	14.3%	8.8	0.7
S=C(NCCCc1ccccc1)NCc1ccccc1	-5.0	-2.6	-2.5	-0.8%	-2.9	2.6
O=C(N/C=C/c1ccco1)Nc1cccc(Cl)c1	-3.0	-6.0	2.8	1.8%	6.6	0.5
CCCCCCn1nc(C(=O)OCC(=O)c2c(N)n(C)c(=O)n(C)c2=O)c2ccccc2c1=O	4.1	9.3	-18.0	0.1%	-13.1	-0.8
COc1ccc(OCCCC(=O)OCC(=O)Nc2sccc2C(N)=O)cc1	-3.8	-2.7	-4.7	0.0%	5.5	-0.5
O=S1(=O)N[C@@H](Cc2ccccc2)COc2cc(N3CCC[C@@H]3CO)ccc21	x	x	1.4	-0.2%	0.2	-0.2
Cc1nc(C(F)(F)F)ccc1C(=O)Nc1ccccc1F	-0.9	-1.2	3.4	0.6%	1.9	-0.8
S=c1[nH]nc(-c2cc(-c3ccccc3)n[nH]2)n1/N=C/c1ccc(Cl)cc1	-3.9	-12.8	3.6	3.5%	10.7	3.2
O=C(NCCCn1ccnc1)/C(=C/c1ccco1)NC(=O)c1cccs1	0.7	-3.1	-0.1	2.4%	x	0.8
CCn1cnc2cc(NCc3nc4ccccc4n3Cc3ccccc3)ccc21	-4.4	-24.8	-15.8	-1.9%	-14.9	-0.6
CC(=O)N1CCN(c2ccc(NC(=O)c3ccc(Cl)c([N+](=O)[O-])c3)cc2)CC1	4.1	9.8	-3.3	-2.5%	-0.7	5.1
CC(=O)C1C(C)CC2C3CCC4CC(=O)CCC4(C)C3CCC21C (configuration not stated)	-1.4	2.0	13.2	7.5%	27.6	-0.6
COc1ccccc1C(=O)NC(=O)COC(=O)c1nc2nc(C)cc(C)n2n1	1.4	2.3	5.2	2.9%	9.6	0.7
Cc1cccc(-n2cnc(C(=O)NNC(=S)Nc3ccccc3)c2)n1	-3.7	-14.6	-90.4*	0.7%	-91.7*	-0.3
